RanGTP-Imp inh – disruptors of Ran-importin-beta complex formation – biochemical, FRET, CFP-Ran, YFP-importin-beta, homogeneous, primary screen; AID 2216; inhibition, % (concentration not given with the values); actives 1.1% (n = 300,000); cell-free CFP-Ran/YFP-importin-beta FRET ratio;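 active = most replicates above 15%; inconclusive = exactly half above 15%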;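 note: 0% = DMSO wells and 100% = Ran loaded with GDP instead of GTP; wells of about 40 µL received 100 nL stock; the first replicate is given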
T cruzi inh – T. cruzi replication inhibition. T. cruzi beta-gal in NIH3T3, luminescence, 90 h. inhibition, % (test concentration not listed). actives 1.4% (n = 300,000). AID 1885;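 active = mean inhibition across valid replicates above about 55%, limit read from the data; inconclusive = mean below that limit but half or more replicates reach it; inactive = mean below it, under half of replicates reach it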;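 note: signal also drops with host cell toxicity which is not excluded here; 0% = plate median of DMSO wells and 100% = zero luminescence signal; higher percent means less beta-gal luminescence so fewer parasites; stock transfer was 50 nL into about 50 µL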
UCH37 DUB inh – inhibitors of human deubiquitinating enzyme UCH37 | purified proteasome/UCH37, Ub-AMC cleavage fluorescence | AID 588478 | inhibition, % (concentration not given with the values) | actives 0.33% (n = 330,000) | Q9Y5K5;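 active = mean of two replicates above 20%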;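 note: 0% = compound-free wells with enzyme and 100% = wells lacking proteasome; stock transfer was 100 nL into about 20 µL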
Target sequence (Q9Y5K5 whole entry, looked up): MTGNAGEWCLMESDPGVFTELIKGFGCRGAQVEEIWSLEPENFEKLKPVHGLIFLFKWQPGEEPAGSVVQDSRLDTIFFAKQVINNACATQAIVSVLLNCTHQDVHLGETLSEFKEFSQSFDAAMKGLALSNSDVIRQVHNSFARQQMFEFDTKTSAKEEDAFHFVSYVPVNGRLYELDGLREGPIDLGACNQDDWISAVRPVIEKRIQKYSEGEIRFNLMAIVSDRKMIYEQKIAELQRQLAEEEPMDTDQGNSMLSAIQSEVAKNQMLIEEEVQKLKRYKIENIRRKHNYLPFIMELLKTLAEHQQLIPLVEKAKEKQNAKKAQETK
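Signal – fluorescence, ex 355 nm, em 460 nm · System – Proteasome-bound UCH37 · Input – 0.15 nM proteasome as dispensed · Timing – 30 min preincubation with enzyme, 25 min cleavage at room temperature · Read-out basis – percent inhibition of cleavage signal versus uninhibited and no-proteasome wells · Medium – Tris-HCl pH 7.4 with ATP-MgCl2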
Beta apoptosis – beta cell apoptosis inhibition. INS-1E cytokine-induced death, ATP luminescence, 48 h; percent of positive-control rescue, neutral wells zero. protection from apoptosis, % (test concentration not listed). actives 0.8% (n = 300,000). AID 435005;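 active = all replicates at 75% or more, or half of them and the mean; inconclusive = half reach 75% but not the mean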;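 note: 0% = cytokine-treated negative control wells and 100% = positive control rescue; higher means more ATP so stronger rescue from cytokine killing; wells of about 40 µL received 100 nL stock; the first replicate is given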
A1 inh – inhibitors of the anti-apoptotic protein A1, read as caspase activation; actives 0.066% (n = 330,000); MEF A1-2A-BIM cells, Caspase-Glo 3/7 luminescence, 3 h; percent of clofoctol response, vehicle zero; caspase activation, % (test concentration not listed); AID 2462;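 active = over half of replicate activation scores above 10%, or exactly half above 10 with the replicate mean above 10; inconclusive = replicate mean below 10 yet half the replicates above 10; inactive = over half of replicates below 10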;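 note: wells of about 30 µL received 50 nL stock; many hits fall short of the cut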
B2AR ag – agonists of human beta-2 adrenergic receptor inducing internalization. Am2.2-beta2AR cells, FAP receptor internalization, flow cytometry; reference of the scale not given here. response, % (concentration not given with the values). actives 0.43% (n = 340,000). P07550;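 active = response above a set limit, near 3 SD of response in nonfluorescent compounds, cut at about 42% in these data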;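 note: stock transfer was 100 nL into about 11 µL; a reference agonist was the positive control; negative values mostly stem from fluorescent compounds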
Target sequence (P07550 whole entry, looked up): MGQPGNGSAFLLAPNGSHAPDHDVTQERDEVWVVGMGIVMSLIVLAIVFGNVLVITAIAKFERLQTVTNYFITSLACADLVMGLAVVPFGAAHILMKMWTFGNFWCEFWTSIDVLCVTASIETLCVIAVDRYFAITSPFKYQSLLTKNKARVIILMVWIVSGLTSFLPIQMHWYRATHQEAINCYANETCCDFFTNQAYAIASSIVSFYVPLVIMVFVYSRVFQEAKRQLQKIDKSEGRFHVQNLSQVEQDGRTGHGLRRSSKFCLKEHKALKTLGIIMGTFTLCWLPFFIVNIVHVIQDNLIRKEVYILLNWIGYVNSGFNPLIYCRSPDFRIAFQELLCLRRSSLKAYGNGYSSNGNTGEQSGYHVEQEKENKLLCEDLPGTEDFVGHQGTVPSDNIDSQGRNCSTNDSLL
LANA-H2A inh – blocks KSHV LANA binding to histone H2A/H2B; inhibition, % (test concentration not listed); cell-free LANA-H2A/H2B peptide, fluorescence polarization; AID 2629; actives 0.6% (n = 320,000); in the data active = inhibition mostly above about 10%, no sharp cut-off; inactive = mostly below about 6.7%;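 note: stock transfer was 7.5 nL into about 10 µL; 0% = median of vehicle wells and 100% = median of positive control wells; one replicate is shown; the record names a cut of 25% in any replicate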
Calb FLC – affects C. albicans growth with fluconazole; C. albicans CaCi-2 (fluconazole-resistant clinical isolate) + fluconazole, Alamar Blue growth, 48 h; AID 1979; growth inhibition, % (concentration not given with the values); actives 0.57% (n = 300,000);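 active = most replicates above 75%; inconclusive = exactly half above 75%; inactive = most below 75%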;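 note: all wells also contain fluconazole at 8 µg/ml as a sub-toxic cotreatment; 0% = median of DMSO wells and 100% = median of geldanamycin control wells; wells of about 8 µL received 7.5 nL stock; the first replicate is given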
Active calls of the source: *; ? = inconclusive; · = no result given; & = joins results of further samples; ! = repeats disagree.

Values in the order – A1 inh	RanGTP-Imp inh	UCH37 DUB inh	Beta apoptosis	LANA-H2A inh	B2AR ag	T cruzi inh	Calb FLC
> O=C(CCCCCn1c(=S)[nH]c2ccccc2c1=O)NCc1ccc2c(c1)OCO2
  -0.2	-1.1	0.2	-1.3	5.5	112.7*	8.1	-31.1
> CCNC(=S)N/N=C/c1cn(Cc2ccc(F)cc2)c2ccccc12
  -0.1	-2.1	·	5.9	-4.0	-1.3	43.0	-5.5
> COc1ccc(N2CCN(C(=O)CCCOc3cc(=O)n(C)c4ccccc34)CC2)cc1
  1.2	3.3	3.7	8.0	-2.0	7.3	14.0	-10.9
> Cc1nn(-c2ccccc2)c(C)c1NC(=O)COC(=O)C1CC(=O)N(CCc2ccccc2)C1 (configuration not stated)
  -0.3	-3.4	-2.3	-4.2	5.3	-10.0	-17.3	-5.8
> COc1cc(NC(=S)N2c3ccccc3CC2C)cc(OC)c1 (configuration not stated)
  0.2	-0.3	2.4	-0.5	-0.9	1.4	-10.0	4.3
> CC(C)NC(=O)c1onc(CSc2ccc(F)cc2)c1C(=O)NC(C)C
  2.3	-2.4	0.1	3.6	0.0	-4.0	7.2	-1.4
> Cc1cc(S(=O)(=O)NCc2cccs2)ccc1-n1cnnn1
  ?	-6.6	-0.7	1.6	2.3	-11.4	-3.0	1.4
> CCCCSCCCNC(=O)C1CCC(CNS(=O)(=O)c2ccc(NC(C)=O)cc2)CC1 (configuration not stated)
  -0.1	7.6	0.3	5.3	-3.4	-4.5	1.7	-12.9
> CN(CCCNC(=O)Cn1cccc1C(=O)c1ccccc1)C1CCCCC1
  0.4	3.6	6.7	·	5.0	-6.4	6.4	6.0
> CCOc1ccc2cc(S(=O)(=O)N3CCN(C)CC3)ccc2c1
  -2.1	0.5	-0.8	-3.6	-1.0	-2.6	-2.9	-1.9
> Cc1nn(Cc2ccc(C(=O)N3N=C(C(F)F)CC3(O)C(F)F)o2)c(C)c1[N+](=O)[O-] (configuration not stated)
  0.1	-0.6	3.8	-2.3	0.5	-1.6	7.3	-10.4
> COc1ccc(CNC(=O)c2c(O)c3ccccc3n(C)c2=O)cc1OC
  -0.9	?	3.7	-2.9	-0.6	-7.2	-1.3	-17.7
> O=C(O)C(Cc1c[nH]c2ccccc12)N1Cc2ccccc2C1=O (configuration not stated)
  0.0	-1.0	-0.8	-2.9	0.4	-1.4	-21.0	?
> Cc1ccc(NC(=O)Nc2c(C)n(C)n(-c3ccccc3)c2=O)cc1C
  0.1	0.1	1.8	-2.8	2.3	-6.5	-25.5	-13.1
> CCC(=O)Nc1sc2c(c1C(N)=O)CCN(Cc1ccccc1)C2
  0.0	133.7*	-3.8	1.7	-0.8	-4.9	-13.8	3.9
> CCC(=NNC(=O)c1ccc2c(c1)nc(C)n2CC)c1cc(F)ccc1O
  -1.0	·	0.8	89.7*	2.8	10.7	·	·
> CN(Cc1nc(-c2cccnc2)no1)S(=O)(=O)c1ccc(Br)cc1
  -1.3	-2.7	-0.4	-5.1	-2.3	-6.3	-3.1	·
> COc1ccc(CCNC(=O)CN(C)S(=O)(=O)c2ccc3c(c2)CCC(=O)N3)cc1OC
  -0.3	12.7	7.4	-15.9	2.0	1.5	-1.4	-4.5
> C=CCn1c(Cc2ccccc2)nc2c(cnn2-c2ccccc2)c1=O
  -0.4	4.5	6.1	15.7	-6.4	-2.9	15.0	-4.8
> O=C(CCCN1CCc2[nH]c3ccc(F)cc3c2C1)c1ccc(F)cc1
  0.9	3.0	·	2.5	10.8	37.3	33.4	2.9

Values in the order – A1 inh	RanGTP-Imp inh	UCH37 DUB inh	Beta apoptosis	LANA-H2A inh	B2AR ag	T cruzi inh	Calb FLC
> Clc1ccc2nc(CN3CCCCC3)cn2c1
  -0.1	1.7	0.5	5.7	2.6	-3.8	-15.8	-2.5
> COC(C)(C)c1cc(C(C)(C)C)nc(N)n1
  0.9	1.8	1.2	-10.2	-1.0	-1.8	-22.4	-3.2
> O=C(COC(=O)Cc1ccsc1)NCc1ccc(Cl)cc1
  -0.3	0.8	5.8	-3.1	-1.0	-2.4	-12.7	9.8
> O=[N+]([O-])c1ccc(Sc2cccc3cccnc23)c2cccnc12
  0.4	2.9	6.2	55.5	-3.6	3.5	86.1*	26.8
> COc1ccccc1CC(=O)NCc1ccc2c(c1)OCO2
  -1.0	-3.2	1.9	-3.5	2.7	1.6	14.6	-35.6
> COc1ccccc1OCCNC(=O)c1ccc(S(=O)(=O)N(C)C)cc1
  0.1	7.4	1.2	6.1	-2.0	7.5	-5.0	-15.0
> Cc1[nH]c(=S)c(C#N)c(-c2ccccc2)c1C(=O)Nc1ccccc1
  0.4	0.7	4.9	4.6	-10.0	-1.7	5.3	-5.5
> CCOC(=O)N1CCN(C(=O)c2cc(COc3ccc4ncccc4c3)on2)CC1
  1.0	3.3	-2.6	54.8	0.7	6.9	-32.7	43.8
> C=CCSc1nnc(NC(=O)C2CC(=O)N(Cc3ccc(C)cc3)C2)s1 (configuration not stated)
  -0.1	·	0.9	-4.8	-0.3	-1.3	·	·
> COc1cc(/C=C2\SC(=S)N(CC(=O)O)C2=O)ccc1OS(=O)(=O)c1ccc(C)cc1
  0.1	5.6	14.7	3.2	-3.5	-0.5	?	·
> C[C@H](CO)N1C[C@H](C)[C@@H](CN(C)S(=O)(=O)c2ccc(F)cc2)Oc2ccc(NC(=O)Cc3ccccc3)cc2C1=O
  0.2	·	2.3	-2.4	6.9	-2.5	·	·
> Cc1ccccc1OCc1n(CC(=O)OC2CC(C)CCC2C(C)C)c2ccccc2[n+]1C (configuration not stated)
  0.2	2.6&0.6	5.5&8.9	114.4*	1.3	108.3*!	65.5*	98.7*!
> Cc1cc(=O)n2c3c(sc2n1)C(=O)N(Cc1ccccc1)C3=O
  -0.3	-0.7	·	-12.1	1.2	·	8.9	5.8
> CCC1CCCCN1S(=O)(=O)c1ccc(S(=O)(=O)N(Cc2cccs2)C2CC2)cc1 (configuration not stated)
  1.3	-3.1	3.4	·	11.7	-4.5	38.3	2.8
> COc1ccc(C2CC(c3cccs3)=NN2C(=O)CSc2nc3ccccc3o2)cc1 (configuration not stated)
  1.1	0.9	-26.6	1.7	1.2	-10.9	29.8	12.9
> COc1ccc(-c2nc3c(Br)c(N)c(Br)cc3o2)cc1
  0.7	·	2.2	·	11.1	-3.9	·	·
> CCc1ccccc1Nc1nc(N)nc(COC(=O)c2c(C)noc2C)n1
  0.0	·	-0.4	-4.2	-3.5	0.7	·	·
> O=C(Nn1cnnc1)c1cc(Cl)ccc1Cl
  2.2	-0.6	2.0	-0.6	-4.0	5.5	-10.7	4.2
> O=C(CN1C(=O)C2CCc3[nH]c4ccccc4c3C2C1=O)N1CCCC1 (configuration not stated)
  ·	9.5	-1.4	·	-14.8	-1.1	1.1	-3.1
> Cc1ccccc1Cn1c(C)cc(C)c(C#N)c1=O
  -0.2	7.4	0.9	-2.2	3.2	-10.3	-7.0	-15.2

Values in the order – A1 inh	RanGTP-Imp inh	UCH37 DUB inh	Beta apoptosis	LANA-H2A inh	B2AR ag	T cruzi inh	Calb FLC
> O=[N+]([O-])c1ccc(Cl)c(S(=O)(=O)NCC2CCCO2)c1 (configuration not stated)
  0.1	-3.4	4.3	-7.7	1.9	6.9	13.8	-4.3
> COc1ccc(C(=O)Nc2cnc3sc(C)nn3c2=O)cc1
  -0.1	-2.2	0.7	-3.8	0.3	-10.4	4.8	11.6
> CC(Sc1nnc(Cc2ccccc2)o1)C(=O)NC1(C#N)CCCCC1 (configuration not stated)
  -0.7	·	-3.0	4.8	-4.2	-2.5	·	·
> Cc1cc(C(F)(F)F)nn1CC(=O)Nc1ccc2c(c1)OCO2
  -0.4	-2.4	1.1	-0.2	4.3	-4.4	5.3	5.4
> CC(NC(=O)Cn1c(=O)oc2cc(S(=O)(=O)N3CCCC3)ccc21)c1ccccc1 (configuration not stated)
  ·	7.8	-1.6	·	·	4.5	-4.9	-1.6
> COCC(=O)Nc1ccc(N2CCN(c3ccccc3)CC2)c(F)c1
  1.4	-1.6	1.4	4.1	0.1	-0.4	10.2	-7.1
> CC(=O)N1c2ccc(S(=O)(=O)NCCC(=O)Nc3ccc(C)cn3)cc2CC1C (configuration not stated)
  -0.7	-1.4	-2.4	·	5.7	3.0	-7.3	-10.3
> O=C(Nc1ccc(Cl)cc1)OCc1ccccn1
  -0.5	?	-0.2	-6.5	-1.4	2.1	-29.5	-18.0
> CC(C)(C)OC(=O)N1CCCN(C(=O)Nc2ccccc2)CC1
  1.0	-3.4	1.7	-4.3	-0.7	-0.8	-2.6	?
> COc1cc(C(=O)Nc2cccc(C)c2C)ccc1OCC(=O)N1CCOCC1
  -0.8	·	3.1	2.8	-40.3	-6.9	·	·
> CCOc1ccccc1C(=O)Nc1ccc(S(=O)(=O)Nc2cc(OC)nc(OC)n2)cc1
  -0.5	-0.8	4.7	-3.1	-4.2	6.2	5.2	-2.0
> CC1(c2nnc(Cc3ccccc3)o2)CC(c2cccc([N+](=O)[O-])c2)=NO1 (configuration not stated)
  -0.1	4.9	-1.2	-7.0	-1.0	4.1	2.0	-2.1
> Cc1cc(NC(=O)CN2CCCCCCC2)no1
  0.2	-0.3	3.4	-4.6	5.3	-6.6	-0.6	30.3
> C#CCOCCOCCOCCNc1nc(N2CCN(C(=O)[C@H]([C@@H](C)O)n3cc(CCCCN)nn3)CC2)nc(N2CCN(C(=O)[C@H](CCCCN)n3cc(CCC(=O)O)nn3)CC2)n1
  -0.1	·	-0.5	-1.3	-2.9	3.6	·	·
> O=C(OCC(=O)N1CCCC1=O)C1CCN(S(=O)(=O)c2c(Cl)cccc2Cl)CC1
  0.4	1.3	2.6	-7.5	-0.2	-1.8	-4.7	-3.9
> Nc1sc2c([n+]1CCCS(=O)(=O)[O-])CCCC2
  0.9	-2.4	1.4	-6.2	3.3	6.7	-14.0	-7.1
> Cc1ccc(CNS(=O)(=O)NCc2ccccc2F)cc1
  -0.2	2.2	4.5	4.3	-4.8	1.4	-12.5	13.0

From PubChem
